Source: PubChem (several laboratories)
eIF4H FP inh – inhibitors of RNA binding by human eIF4H. eIF4H fluorescence polarization binding assay. inhibition, % at 35 µM. 290,000 compounds, 0.94% hits;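 active = 50% or more with normal probe brightness, or confirmed in later tests; inconclusive = above 50% with abnormal brightness, or retests that disagree; inactive = below 50% or failed in later tests; about a fifth of its hits are not listed in these tables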;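 note: calls also rest on retests at 20 µM and on dose response follow-up; 0% = protein and probe with vehicle and 100% = probe without protein; strong numbers were not always called active; many hits fall short of the cut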
Yeast UUG start – alters start codon recognition fidelity in yeast. S. cerevisiae UUG-firefly luciferase reporter, luminescence/redox ratio. activity score, % at 18.7 µM. 350,000 compounds, 0.13% hits;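 active = replicate mean at a twofold rise or more, about +100% in these data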;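 note: firefly luciferase made from a UUG start codon reports start codon fidelity; reporter light over untreated wells divided by growth signal over untreated wells; some hits fall short of that in this replicate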
HIV Env fusion – blocks HIV Env-driven cell-cell fusion; HeLa-JRFL Env/CEM21 cell fusion, luciferase; inhibition, % at 12.3 µM; 360,000 compounds, 1.1% hits; AID 651610;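 active = mean replicate inhibition score of at least 50 and every replicate individually at or above 50; inconclusive = only one of the two criteria met; inactive = mean below 50 and not all replicates reaching 50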;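 note: 0% = plate neutral controls and 100% = maraviroc near 300 nM; one replicate is shown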
MT1-MMP act inh – blocks activation of human MT1-MMP; 360,000 compounds, 0.061% hits; AID 651647; HT1080 RFP-PRO-GFP cells, GFP/RFP ratio fluorescence, overnight; percent of plate control window, DMSO zero; GFP/RFP ratio change, % at 20 µM;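 active = GFP/RFP ratio change of at least 30% with cell ATP level not reduced by more than half and red fluorescence within 50% of control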; note: strong numbers were not always called active
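Material – HT1080 RFP-PRO-GFP cells · Control set – DMSO wells and RFP-L50D-GFP cells · Incubation – overnight cell settling, then overnight compound exposure, 37 °C, 5% CO2 · Compound dosing – single-point 20 µM compound, 1% DMSO · Read-out – GFP/RFP fluorescence ratio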
CSC inhib – blocks cancer stem cells; AID 2717; 300,000 compounds, 1.1% hits; inhibition, % at 7.5 µM; cancer stem cell-like cells viability, luminescence;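 active = mean at 75% or more and at least half the replicates too; inconclusive = mean and replicates disagree; tested in HMLE shEcad cells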;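 note: 0% = median of negative and 100% = median of positive control wells; the first replicate is given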
PABP polyA inh – blocks human PABP binding to poly(A) RNA. P11940. inhibition, % at 35 µM. 290,000 compounds, 1% hits. AID 2014. fluorescence polarization;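 active = 50% or more with normal probe brightness, or confirmed in later tests; inconclusive = above 50% with abnormal brightness, or retests that disagree; inactive = below 50% or failed in later tests; about a fifth of its hits are not listed in these tables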;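 note: calls also rest on retests at 20 µM and on dose response follow-up; controls were probe without protein and protein plus probe with vehicle; some compounds called inactive have numbers as strong as hits; many hits fall short of the cut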
Target sequence (P11940 whole entry, looked up): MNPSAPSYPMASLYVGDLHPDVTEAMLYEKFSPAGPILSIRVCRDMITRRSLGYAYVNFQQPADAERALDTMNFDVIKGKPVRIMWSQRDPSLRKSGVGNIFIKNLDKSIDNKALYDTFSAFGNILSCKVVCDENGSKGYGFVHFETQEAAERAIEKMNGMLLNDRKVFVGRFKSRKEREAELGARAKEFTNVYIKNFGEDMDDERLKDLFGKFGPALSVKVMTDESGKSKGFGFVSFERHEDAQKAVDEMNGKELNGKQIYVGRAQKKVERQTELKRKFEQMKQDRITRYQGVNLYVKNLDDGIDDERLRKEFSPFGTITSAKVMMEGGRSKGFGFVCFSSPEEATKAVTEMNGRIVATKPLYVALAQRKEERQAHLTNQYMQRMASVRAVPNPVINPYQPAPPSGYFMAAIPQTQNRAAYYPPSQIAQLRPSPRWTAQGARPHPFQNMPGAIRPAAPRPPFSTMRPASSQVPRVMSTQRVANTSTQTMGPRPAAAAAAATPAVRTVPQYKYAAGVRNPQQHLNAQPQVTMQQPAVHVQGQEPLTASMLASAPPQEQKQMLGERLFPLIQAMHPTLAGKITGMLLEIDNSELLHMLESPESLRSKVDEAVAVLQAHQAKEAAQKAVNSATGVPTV
Rce1 inhib – yeast Ras-converting enzyme inhibition; yeast membranes, quenched prenylated peptide cleavage fluorescence; Q03530; calls only; AID 2563; 290,000 compounds, 0.27% hits;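 active = fall in fluorescence gain of 50% or more versus controls, with final raw signal at or below 3038400; inconclusive = same 50% fall but final raw signal above 3038400; inactive = fall in fluorescence gain under 50%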;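 note: plate controls were neutral control wells for no effect and wells lacking membranes for full effect; tested at 10 µM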
MT1-MMP act inh RFP – recorded beside MT1-MMP act inh, whose call it bears; RFP signal change, %; measured here: RFP expression control read;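 0 = vehicle wells; hits needed this value within 50% of zero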
Numbers without * were called inactive; i = inactive; ? = inconclusive; . = not tested or not shown.

SMILES	eIF4H FP inh	Yeast UUG start	HIV Env fusion	MT1-MMP act inh	MT1-MMP act inh RFP	CSC inhib	PABP polyA inh	Rce1 inhib
O=C1CCc2cc(S(=O)(=O)N3CCN(c4cccc(Cl)c4)CC3)ccc2N1	-6	2	-5	9	-1	-7	-2	i
Cc1cccc(OCC(=O)N/N=C\c2cc3c(cc2[N+](=O)[O-])OCO3)c1C	12	0	.	-1	-4	2	16	i
CCOc1ccc(C(C(=O)NCCC(C)C)N(CCO)C(=O)c2snc(C(N)=O)c2N)cc1 (stereo not given)	3	-4	-6	2	-5	-8	10	i
CN(c1ccccc1)S(=O)(=O)c1cccc(NS(=O)(=O)c2ccc(/C=C/C(=O)O)cc2)c1	-3	-13	3	3	3	-1	13	i
COc1ccc(CNC(=O)Cn2cncn2)cc1OC	-2	.	4	-6	-2	-6	5	i
O=[N+]([O-])c1cccc(-n2cc3ccc([N+](=O)[O-])cc3n2)c1	.	-10	-20	2	0	1	.	.
COc1ccc(-n2cnc3scc(-c4ccc(OC)c(OC)c4)c3c2=O)cc1	-5	10	-20	-1	-3	.	-5	i
O=C(O)c1cc([N+](=O)[O-])ccc1NCc1ccccc1Cl	4	-19	-3	2	3	13	10	i
Cc1cccc(NC(=O)NNC(=O)COc2ccc3ccccc3c2)c1	-6	-11	9	-3	3	.	5	i
COc1ccc(C2C(C(=O)NC(C)C)c3ccccc3C(=O)N2C)cc1OC (stereo not given)	6	3	20	2	3	-12	-6	i
CCOC(=O)c1[nH]c(C)c(C(=O)N2CCN(c3ccc(OC)cc3)CC2)c1C	-6	12	0	4	1	-4	-7	i
CCOC(=O)N1CCN(S(=O)(=O)c2cc(Br)cc3c2N(C(=O)CC)CC3)CC1	-13	-8	-11	0	-2	-13	-7	i
CSCC[C@H](NC(=O)[C@@H]1Cc2ccccc2CN1)C(=O)NC1CCCCC1	-4	.	3	0	5	13	-4	i
O=C(c1ccccc1)C(O)C(c1ccccc1)N1CCOCC1 (stereo not given)	4	2	5	-2	2	-5	3	i
COc1ccc(CCNC(=O)c2cc(C(C)C)on2)cc1OC	-2	-10	-52	0	3	-15	4	i
CC(=O)c1c(C)[nH]c(C(=O)COC(=O)CN(C)S(=O)(=O)c2ccc(Cl)cc2)c1C	3	-11	.	1	4	2	8	i
Cc1ccc(-c2cc(C(=O)Nc3ccc(S(=O)(=O)Nc4ncccn4)cc3)[nH]n2)c(O)c1C	4	-17	33	-8	-2	-1	-30	.
O=P(C(=NCCO)NO)(N1CCOCC1)N1CCOCC1	-2	2	2	0	-1	-12	13	i
Cc1ccc(/C=N/NC(=O)c2cccc([N+](=O)[O-])c2)o1	5	-10	.	2	7	-5	-3	i
O=C(OCc1cnc(Cl)s1)c1c(F)cccc1F	-12	.	2	-2	2	-10	-16	i
COc1ccc(C2NC(=O)CCC2[N+](=O)[O-])cc1OC (stereo not given)	0	-17	-3	-3	4	4	0	i
Cc1ccccc1NC(=O)COC(=O)c1cc[n+]([O-])cc1	.	5	?	-1	3	-3	.	i
CN1CCN(CCCNC(=O)c2cc3c(=O)oc4ccccc4c3s2)CC1	0	-12	.	-1	3	16	-6	.
COc1ccc(NC(=O)NCc2ccncc2)cc1	1	-8	.	0	1	1	9	i
CCCC1(c2ccccc2)NC(=O)N(C/C=C/Cl)C1=O (stereo not given)	-10	7	3	-1	-1	.	3	i
Going on with the list:
SMILES	eIF4H FP inh	Yeast UUG start	HIV Env fusion	MT1-MMP act inh	MT1-MMP act inh RFP	CSC inhib	PABP polyA inh	Rce1 inhib
CC(=O)Nc1ccc(-c2csc(NC(=O)C3=COCCO3)n2)cc1	.	.	.	2	3	-8	.	i
CCC(C(=O)NCc1ccc(F)cc1)n1nc(C)n2c(cc3occc32)c1=O (stereo not given)	2	16	-5	2	2	-12	10	i
COc1ccc(-c2nnc(N3CCOCC3)c3ccccc23)cc1	3	-2	5	-1	1	2	4	i
COC(=O)N/N=C/c1cccc(OC(=O)c2ccc3c(c2)OCO3)c1	-1	-7	10	5	1	-8	-7	i
CCN(Cc1cc(=O)n2ccsc2n1)Cc1nc2cc(OC)c(OC)cc2c(=O)[nH]1	-5	0	7	-1	-3	-12	3	i
CN(NC1OC(=O)c2ccccc21)c1ccc(C(F)(F)F)cc1[N+](=O)[O-] (stereo not given)	-2	-9	7	0	1	1	0	i
Cn1c(=O)c2cn3c(c2n(C)c1=O)C(c1ccccc1)CC(c1ccccc1)=N3 (stereo not given)	-4	-21	.	2	4	-4	13	i
O=[N+]([O-])c1ccc(N2CCN(C(=S)NC3CCCCC3)CC2)cc1	-3	0	.	-2	-28	-12	-9	i
O=C(CCNS(=O)(=O)c1cccc2nsnc12)N1CCc2ccccc21	19	-4	.	1	7	-10	-1	i
COc1ccc(Sc2ccccc2CN(C)C)cc1OC	-4	-12	.	-1	3	.	-5	i
CC1CC(=O)N(C)c2ccc([N+](=O)[O-])cc2N1 (stereo not given)	0	-23	-30	-6	5	-5	7	i
Clc1ccc(-c2nnc(-c3cccnc3)o2)cc1	-3	-4	-29	-4	-2	4	0	i
COc1cccc(C2/C(=C(\O)c3ccc4c(c3)OCCO4)C(=O)C(=O)N2CCN(C)C)c1 (stereo not given)	-6	-21	14	5	0	.	0	.
Cc1cc(=O)oc(C)c1C(=O)NC12CC3CC(CC(C3)C1)C2	8	-13	.	5	4	-10	1	i
Cn1cc(Br)c(C(=O)NNC(=O)Nc2ccccc2C(F)(F)F)n1	-6	.	-2	2	4	1	-5	i
O=C(Nc1ncnc2c1C(c1ccccc1)c1c(ccc3ccccc13)O2)c1ccccc1 (stereo not given)	.	-15	1	-17	-19	.	.	.
CC(C)N1CCCC(C)(C(=O)Nc2nc3ccccc3[nH]2)C1 (stereo not given)	.	-10	-2	4	4	.	.	.
O=S(=O)(NCC(c1ccc2c(c1)OCO2)N1CCOCC1)c1ccc(Cl)cc1 (stereo not given)	.	-7	21	-5	-1	-8	.	i
CC(=O)c1c(CSc2ccccc2)oc2ccc(O)c(CN(C)C)c12	4	-5	2	-9	-6	7	-5	i
CS(=O)(=O)N(Cc1ccco1)Cc1ccccc1Cl	-10	-9	19	-1	-4	-13	-9	i
O=C(O)CCCC(=O)OCCCCc1cccs1	-7	-18	13	-1	6	-6	-3	i
CCCOc1ccc(N2C(=O)CC(N3CCN(c4nc5ccccc5s4)CC3)C2=O)cc1 (stereo not given)	-6	-4	.	-7	-11	8	5	i
C=CC(n1cncn1)C(O)(c1ccccc1)c1ccccc1 (stereo not given)	.	-25	-13	-2	1	3	.	i
CC(C)(C)c1ccc(OCC(O)CN2CCN(C(=O)c3ccccc3)CC2)cc1 (stereo not given)	3	-10	15	3	-3	61	4	i
O=C(Nc1nc2ccccc2n1CCN1CCCCC1)c1ccc(Cl)cc1	13	.	.	.	.	-5	-1	i

2 entries from above, with bars between the fields:
compound | eIF4H FP inh | Yeast UUG start | HIV Env fusion | MT1-MMP act inh | MT1-MMP act inh RFP | CSC inhib | PABP polyA inh | Rce1 inhib
O=S(=O)(NCC(c1ccc2c(c1)OCO2)N1CCOCC1)c1ccc(Cl)cc1 (stereo not given) | . | -7 | 21 | -5 | -1 | -8 | . | i
CC(=O)c1c(CSc2ccccc2)oc2ccc(O)c(CN(C)C)c12 | 4 | -5 | 2 | -9 | -6 | 7 | -5 | i

New compounds follow
SMILES	eIF4H FP inh	Yeast UUG start	HIV Env fusion	MT1-MMP act inh	MT1-MMP act inh RFP	CSC inhib	PABP polyA inh	Rce1 inhib
CCOC(=O)N1CCN(C(=O)CSc2nnc(CNC(=O)c3c(F)cccc3Cl)o2)CC1	4	-11	.	-1	0	-5	9	i
Cn1c(CCNC(=O)c2ccco2)nc2cc([N+](=O)[O-])ccc21	-2	-17	3	-5	-1	-7	12	i
Cc1ccc(NC(=S)NCc2ccccc2)cc1S(=O)(=O)N1CCCCC1	-9	.	-8	3	-13	.	5	i
Cc1noc(C)c1COC(=O)CCCNC(=O)c1ccc(Cl)cc1	7	2	25	1	-3	4	2	i
COC(=O)CSc1nnc(-c2ccncc2)n1N	8	9	-70	-2	-1	-3	-1	i
Cc1ccc(SCCOCCN2CCOCC2)cc1	-3	1	20	2	6	24	1	i
COC(=O)N1C(=O)[C@](c2ccccc2)(C(C)C)N1C(=O)OC	-8	-15	26	-4	-5	11	-4	i
O=C(NCc1ccco1)/C(=C\c1cccc([N+](=O)[O-])c1)NC(=O)c1ccco1	1	0	17	-1	0	-4	-4	i
Cc1ccc(S(=O)(=O)Oc2ccccc2/C=N/N=C(N)N)cc1	-6	6	6	-3	-5	0	-11	i
CCOC(=O)C(NCCc1ccccc1)(NC(C)=O)C(F)(F)F (stereo not given)	1	.	5	0	-1	-3	0	i
O=C(NCCc1ccc(F)cc1)Nc1ccc([N+](=O)[O-])cc1	-15	-12	19	3	-3	-2	-2	i
COc1ccc(S(=O)(=O)NCCC(=O)OCc2cc(=O)oc3cc(C)ccc23)cc1[N+](=O)[O-]	.	6	5	-2	3	.	.	.
CC(C(=O)N1CCCCC1)n1sc2ccccc2c1=O (stereo not given)	-7	-18	.	3	-3	-11	1	i
CN(C)S(=O)(=O)c1ccc(/C(O)=C2/C(=O)C(=O)N(Cc3cccnc3)C2c2ccco2)cc1 (stereo not given)	-1	-18	.	0	6	-5	4	i
C=CCn1c(SCc2cc(C(C)=O)ccc2OCC)nc2ccccc2c1=O	-8	-9	.	7	-7	64	-7	i
Cc1ccc(NC(=O)NNC(=O)CN2C(=O)COc3ccccc32)cc1	-6	-17	3	2	3	-6	-7	i
Cc1cc(=O)n2nc(-c3ccccc3)sc2c1C#N	2	-9	.	2	3	-6	1	i
O=c1[nH]c(SCc2ccc(OC(F)(F)F)cc2)nc2c1CCC2	.	-20	-24	8	0	.	.	.
O=C(NC1CCSc2ccccc21)c1cccc(Br)c1 (stereo not given)	5	-12	1	-3	-4	-3	-2	i

Among those listed so far, twelve contain a nitro group on carbon:
SMILES	eIF4H FP inh	Yeast UUG start	HIV Env fusion	MT1-MMP act inh	MT1-MMP act inh RFP	CSC inhib	PABP polyA inh	Rce1 inhib
Cc1cccc(OCC(=O)N/N=C\c2cc3c(cc2[N+](=O)[O-])OCO3)c1C	12	0	.	-1	-4	2	16	i
O=[N+]([O-])c1cccc(-n2cc3ccc([N+](=O)[O-])cc3n2)c1	.	-10	-20	2	0	1	.	.
O=C(O)c1cc([N+](=O)[O-])ccc1NCc1ccccc1Cl	4	-19	-3	2	3	13	10	i
Cc1ccc(/C=N/NC(=O)c2cccc([N+](=O)[O-])c2)o1	5	-10	.	2	7	-5	-3	i
COc1ccc(C2NC(=O)CCC2[N+](=O)[O-])cc1OC (stereo not given)	0	-17	-3	-3	4	4	0	i
CN(NC1OC(=O)c2ccccc21)c1ccc(C(F)(F)F)cc1[N+](=O)[O-] (stereo not given)	-2	-9	7	0	1	1	0	i
O=[N+]([O-])c1ccc(N2CCN(C(=S)NC3CCCCC3)CC2)cc1	-3	0	.	-2	-28	-12	-9	i
CC1CC(=O)N(C)c2ccc([N+](=O)[O-])cc2N1 (stereo not given)	0	-23	-30	-6	5	-5	7	i
Cn1c(CCNC(=O)c2ccco2)nc2cc([N+](=O)[O-])ccc21	-2	-17	3	-5	-1	-7	12	i
O=C(NCc1ccco1)/C(=C\c1cccc([N+](=O)[O-])c1)NC(=O)c1ccco1	1	0	17	-1	0	-4	-4	i
O=C(NCCc1ccc(F)cc1)Nc1ccc([N+](=O)[O-])cc1	-15	-12	19	3	-3	-2	-2	i
COc1ccc(S(=O)(=O)NCCC(=O)OCc2cc(=O)oc3cc(C)ccc23)cc1[N+](=O)[O-]	.	6	5	-2	3	.	.	.
